Bioassay records (PubChem BioAssay)
SARS PLpro yeast = inhibitors of SARS-CoV papain-like protease in yeast. hit rate 0.19% among 330,000. S. cerevisiae expressing SARS-CoV PLpro, growth rescue; control for the full effect not named in the record. Potency, µM (titrated, usually from 32.9 µM), without a hit: at the highest dose activity, positive = growth rescue; active means well fitted rising curve with a large enough effect; inconclusive means small, poorly fitted or top-dose-only effect; inactive means no such curve, though single readings can be large or run the other way; also: 0% is about no effect; nearly all actives have a fitted effect of over 55% in size; growth read by luminescence after 48 h
Cruzain Triton = blocks cruzain activity in presence of Triton detergent; AID 1478; purified cruzain, Z-FR-AMC fluorescence, 0.01% Triton; hit rate 0.43% among 200,000; P25779; Potency, µM, without a hit: max response, negative = inhibition, usual class: inhibitors;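 also: plate controls were neutral wells for no effect and buffer without enzyme for full effect; nearly all actives have a fitted effect of over 40% in size; top concentration of the series not given in the record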
Target sequence (P25779 123-467 limits assumed): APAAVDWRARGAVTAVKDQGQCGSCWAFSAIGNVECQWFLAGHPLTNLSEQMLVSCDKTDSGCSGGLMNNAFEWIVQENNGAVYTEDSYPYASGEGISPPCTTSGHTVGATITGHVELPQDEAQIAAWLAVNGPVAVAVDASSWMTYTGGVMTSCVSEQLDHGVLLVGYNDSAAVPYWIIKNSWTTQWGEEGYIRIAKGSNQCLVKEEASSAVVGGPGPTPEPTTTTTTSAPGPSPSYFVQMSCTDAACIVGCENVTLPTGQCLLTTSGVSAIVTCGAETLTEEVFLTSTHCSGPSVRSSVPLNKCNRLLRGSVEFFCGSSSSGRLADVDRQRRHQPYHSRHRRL
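Purified cruzain (1.5 nM final) was preincubated with compounds for 15 min at room temperature in 100 mM sodium acetate pH 5.5, 5 mM DTT, 0.01% Triton X-100. Reaction started with 2 uM Z-FR-AMC; AMC fluorescence change over 60 s gave activity.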
Marburg entry inh = Marburg virus entry inhibition; Marburg virus pseudotyped entry inhibition, cell reporter; control for the full effect not named in the record; about a third of the inactives were read at about 46 µM; Potency, µM (series often up to 37.8 µM), for inactives: top-dose activity change, negative = inhibition, actives largely listed as inhibitors; AID 540276; hit rate 1.8% among 300,000; active = well fitted inhibition curve with a large enough effect; inconclusive = small, poorly fitted or top-dose-only effect, or effect the other way; inactive = flat fitted curve, though single readings scatter; tested in HEK293 cells; about a fifth of its hits are not listed in these tables; also: % is scaled to controls: 0 for no effect and ±100 for the full control effect; luciferase read-out
RE007 growth inh = less growth of the S. pombe RE007 Vpr strain; S. pombe RE007 Vpr strain, BacTiter-Glo ATP luminescence, 24 h; control for the full effect not named in the record; Potency, µM (titrated, usually from 92.2 µM), inactives show top-dose activity change, negative = less growth; hit rate 0.21% among 360,000; AID 651644; active = well fitted falling curve with a large enough effect; inconclusive = small, poorly fitted or top-dose-only effect; inactive = no such curve, though single readings can be large or run the other way;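 also: % is scaled to controls: 0 for no effect and ±100 for the full control effect; nearly all actives have a fitted effect of over 50% in size; the assay follows cell death caused by Vpr and the record does not say whether a fall means rescue or toxicity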
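Fission yeast strain RE007, carrying one chromosomally integrated HIV-1 vpr copy, was seeded at OD 0.01 in PMG+AL medium with 23 nL pinned compound. After 24 h at 30 °C and 99% humidity, viability was read by BacTiter-Glo luminescence.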
StopGo reporter = FMDV 2A StopGo reporter, luciferase signal; human cells with a luciferase reporter of 2A StopGo recoding; control for the full effect not named in the record; Potency, µM (highest dose often 57.9 µM), for inactives: at the highest dose signal change, negative = less light; hit rate 1.2% among 410,000; AID 1159524; active = well fitted falling curve with a large enough effect; inconclusive = small, poorly fitted or top-dose-only effect; inactive = no such curve, though single readings can be large or run the other way; tested in HEK293T cells; also: % is scaled to controls: 0 for no effect and ±100 for the full control effect; nearly all actives have a fitted effect of over 45% in size; luciferase light after 4 h
Cruzain inh noDet = blocks cruzain activity in detergent-free assay. P25779. purified cruzain, Z-FR-AMC fluorescence, no detergent. Potency, µM, without a hit: max response, negative = inhibition, most hits filed as inhibitors. hit rate 2.3% among 200,000. AID 1476;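 also: plate controls were enzyme without inhibitor for no effect and buffer without enzyme for full effect; nearly all actives have a fitted effect of over 40% in size; top concentration of the series not given in the record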
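Purified cruzain at 1.5 nM, pre-incubated 15 min with compound at room temperature in 100 mM sodium acetate pH 5.5, 5 mM DTT, 0.00005% Triton X-100. Reaction started with 2 uM Z-FR-AMC; AMC fluorescence increase over 60 s gives rate.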
NS1 inh = blocks influenza NS1 protein function. S. cerevisiae slowed by influenza A NS1, growth recovery by OD600. Potency, µM (top dose mostly 46.1 µM), for the others: at the top dose activity, positive = more growth. hit rate 0.4% among 270,000; active means well fitted rising curve with a large enough effect; inconclusive means small, poorly fitted or top-dose-only effect; inactive means no such curve, though single readings can be large or run the other way; also: nearly all actives have a fitted effect of over 50% in size
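Read-out: OD600 growth recovery of NS1-expressing budding yeast. Cells grown overnight at 30C in -URA glucose medium, washed, resuspended and diluted 1:100 in 2% galactose assay medium, pH 6.0. Same strain lacking NS1 served as positive control.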
LASV entry inh = Lassa virus entry inhibition; Lassa virus pseudotype entry inhibition, cell reporter; control for the full effect not named in the record; AID 540256; hit rate 1.2% among 300,000; Potency, µM (doses to about 37.9 µM), inactives show top-dose activity change, negative = inhibition, actives largely listed as inhibitors; active means well fitted inhibition curve with a large enough effect; inconclusive means small, poorly fitted or top-dose-only effect, or effect the other way; inactive means flat fitted curve, though single readings scatter; tested in HEK293 cells; also: % is scaled to controls: 0 for no effect and ±100 for the full control effect; nearly all actives have a fitted effect of over 50% in size; luciferase read-out
* marks the source's active call; other numbers are inactive results; ? = inconclusive; · = no result given; & = joins results of further samples; [ ] = dose if it differs, or a comment. Unless noted, calls follow the shape of the dose curve; as a rule, active = well fitted curve in the direction sought with a large enough effect; inconclusive = small, poorly fitted or top-dose-only effect, or another doubt; inactive = no such curve, though single readings can be large; an effect the other way counts as inactive or inconclusive. Potency is read from the fitted curve at half-maximal effect. Hits appear at their usual frequency; about 4.8% have a hit in one of these screens.

SMILES	SARS PLpro yeast	Cruzain Triton	Marburg entry inh	RE007 growth inh	StopGo reporter	Cruzain inh noDet	NS1 inh	LASV entry inh
Clc1ccc2c(c1)NC(c1ccncc1)=NC(c1cccs1)=N2	·	-5.5%	-22%[46.1 µM]	·	-5%	5%	·	20%[46.1 µM]
Cc1nc(N)sc1-c1csc(N(C)c2ccc(O)cc2)n1	-1%	13µM*	?	-5%	14%	5µM*	?	-6%
CC(=O)c1ccc(NC(=O)C2CC(=O)N(Cc3ccccc3)C2)cc1 (stereo not drawn)	2%	3.7%	14%	3%	78%[activator]	-1%	10%	-17%
Cc1cc(C)nc(NS(=O)(=O)c2ccc(NC(=O)CCC3COc4ccccc4O3)cc2)n1 (stereo not drawn)	-3%	-3.9%	17%&17%	1%	60%[activator]	4%	1%	20%
CCOC(=O)c1ccc(N2C(=O)CC(SCC(N)C(=O)OCC)C2=O)cc1 (stereo not drawn)	-16%	5.3%	7%[46.1 µM]	-18%	20%	13%	-15%	16%
Cc1cccc(C(CC(=O)NCC2(c3ccccc3)CCCC2)c2ccccc2)c1O (stereo not drawn)	·	-6.1%	10µM*	·	-18%	6%	·	-29%[46.1 µM]
O=S(=O)(NCc1csc(-c2cccnc2)n1)c1cccs1	-6%	0.3%	·	22%	-1%	?	-49%	·
COCCNC(=O)CCC(=O)NNc1nc2ccccc2c2nc(C)nn12	0%	-0.3%	18%	-5%	6%&-1%	7%	·	9%
COc1ccccc1NC(=O)C(C)OC(=O)C1CC(=O)N(c2ccc3c(c2)OCCO3)C1 (stereo not drawn)	-8%	·	-1%[46.1 µM]	-2%	-20%	·	0%	-12%
COc1ccc(C(=O)C2CCN(C(=S)Nc3ccc(F)cc3)CC2)cc1	8%	·	-10%[46.1 µM]	12%	12%	·	·	?
O=C(Cn1ncc2ccsc2c1=O)N1CCN(c2ccccc2F)CC1	·	-0.7%	-16%[46.1 µM]	·	-4%	-16%	·	-2%[46.1 µM]
COC(=O)CCCC1=CC2=CC(=O)C(C)(OC(=O)c3cccs3)C(=O)C2=CN1CCc1ccccn1 (stereo not drawn)	1%	·	?	4%	-14%	·	1%	·
COc1ccc(/C=C2\CCCC(C(=O)C(F)(F)F)=C2O)cc1	7%	-2.2%	6%	-14%	40%[activator]	?	-2%	?
Cn1c(SCc2ccc(C(C)(C)C)cc2)nnc1C1COc2ccccc2O1 (stereo not drawn)	-3%	·	?	11%	-28%	·	-6%	?
O=C(NNc1nc(-c2ccccc2)cs1)c1ccc(F)cc1	4%	·	-1%	41%	7%	·	·	10%
Cn1c(N)c(S(=O)(=O)N2CCCC2)c(=O)n(C)c1=O	?	·	10%[46.1 µM]	1%	-9%	·	3%	6%[46.1 µM]
CC(C)c1ccc(NC(=O)c2ccc3c(c2)C(=O)N(Cc2cccnc2)C3=O)cc1	-1%	·	·	-4%	?	·	11%	·
Cc1sc2ncnc(N3CCCCC3C)c2c1C (stereo not drawn)	-2%	2.3%	?	-20%	?	-3%	-51%	?
COc1ccc(-c2nnc(SC(C)C(=O)Nc3ccc4c(c3)OCCO4)o2)cc1 (stereo not drawn)	-3%	4.6%	25%	-9%	82%[activator]	-7%	-2%	-28%
NC(=O)CN(C/C=C/c1ccccc1)C/C=C/c1ccccc1	-7%	·	·	-9%	-10%	·	-30%	·
CCc1cccc(CC)c1N(COC)C(=O)Cn1cnc2ccccc21	-1%	·	?	10%	14%	·	-3%	-11%[46.1 µM]
COc1ccc(C(C(=O)NC2CCCCC2)N(C(=O)c2ccco2)c2ccccc2C(C)=O)cc1 (stereo not drawn)	3%	·	-6%[46.1 µM]	11%	20%	·	1%	·
N=c1n(CCN2CCOCC2)c2ccccc2n1CC(=O)c1ccc(Cl)c(Cl)c1	-25%	-10%	?	-28%	-18%	?	-163%	?
O=C(c1cccs1)N1CCCc2cc(NS(=O)(=O)c3cc(F)ccc3F)ccc21	·	-6.2%	·	·	?	-24%	·	3%[46.1 µM]
CC(CNC(=O)CCC(=O)N1CCOc2ccccc21)c1ccccc1 (stereo not drawn)	-1%	·	·	5%	-18%	·	10%	·
COC(=O)c1cc2c(C(F)(F)F)nn(C)c2s1	1%	·	19%	4%	-2%	·	2%	-12%
Cc1csc2c(C#N)c(=O)c3c(n12)CCC3	?	-2.0%	0%	-12%	·	2%	-47%	-14%
CNC(=O)C1=C(C)NC(=S)NC1c1cccs1 (stereo not drawn)	0%	·	0%	9%	25%	·	-4%	-3%
COc1ccc(-c2cc(C(=O)N3CCCC3)no2)cc1	-4%	·	?	-30%	-48%	·	-25%	?
Cc1ccc(C)c(Cn2c3ccccc3c3cnn(CC(=O)NCc4ccccc4)c(=O)c32)c1	·	0.3%	10%[46.1 µM]	·	1%	?	·	-1%[46.1 µM]
NC(=O)C1CCN(C(=O)CN(C2CCCCC2)S(=O)(=O)c2ccc(F)cc2)CC1	-2%	·	2%[46.1 µM]	1%	26%	·	-8%	11%
COc1cc([N+](=O)[O-])ccc1NC(=S)Nc1cccc(C(=O)O)c1	6%	-8.2%	8%	-18%	-6%	10%	14%	0%
Cc1cc([N+](=O)[O-])ccc1N=Nc1c(N)[nH]n(-c2ccccc2)c1=O	1%	·	-3%[46.1 µM]	1%	7%	·	·	1%
CC1CCCC(C)N1CC(C)(C)NS(=O)(=O)c1ccc(Cl)cc1 (stereo not drawn)	-9%	4.2%	0%	16%[3.69 µM]	0%	2%	-6%	4%
Cc1nc(NC(=O)C2CC2)sc1C(=O)Nc1ccccc1Cl	-5%	·	·	-16%	84%[activator]	·	-2%	·
c1ccc(C2(CNc3ccccn3)CCCC2)cc1	2%	-0.5%	3%	-21%	-27%	-10%	-12%	-17%
Cc1cc(=O)c2cc(C(=O)c3ccccc3)ccc2[nH]1	-1%	·	·	1%	24%	·	-6%	·
O=S(=O)(Cc1ccco1)Cc1nc(-c2ccc(Cl)cc2)cs1	0%	·	1%[46.1 µM]	-14%	-10%	·	-7%	-11%
COc1ccc(C2C(C#N)=C(N)OC3=C2C(=O)CCC3)cc1OC (stereo not drawn)	0%	·	-12%[46.1 µM]	9%	11%	·	6%	2%[46.1 µM]
Cc1ccc(CN(C(=O)COc2cccc(Cl)c2)c2ccccn2)o1	·	-6.1%	?	·	14%	-2%	·	-21%[46.1 µM]
Cc1nc2cc(-c3ccccc3)nn2c(C)c1CCC(=O)Nc1ccc(F)cc1F	·	0.0%	4%[46.1 µM]	·	-14%	3%	·	-4%[46.1 µM]
COc1ccc(CCNC(=O)[C@@H]2C[C@H]2c2ccccc2)cc1OC	?	0.4%	?	9%	-5%	-12%	-5%	17%
CCC(=O)Nc1cccc(NC(=O)c2cccc([N+](=O)[O-])c2)c1	-2%	1.6%	1%	-1%	32%[activator]	9%	5%	7%
Cc1cc(C)c2c(N)c(S(=O)(=O)c3ccccc3)sc2n1	?	-3.7%	-19%[46.1 µM]	1%	?	-6%	-26%	?
Cc1ccc(C)c(CN2C(=O)CSc3ccc(C(=O)NCCc4ccc(Cl)cc4)cc32)c1	·	-1.0%	15%[46.1 µM]	·	-10%	5%	·	-2%[46.1 µM]
CN(CC(=O)Nc1ccc(F)c(F)c1F)C(=O)c1ccc(N2CCCC2=O)cc1	2%	·	?	1%	47%[activator]	·	·	0%[46.1 µM]
O=C(NCc1ccco1)C1CC(c2ccc(Cl)c(Cl)c2)=NO1 (stereo not drawn)	0%	·	·	12%	4%	·	-6%	·
COc1ccc(OC)c(NC(=O)C(C)n2c(=O)c(-c3ccccc3NC(C)=O)nc3ccccc32)c1 (stereo not drawn)	·	-0.7%	-10%[46.1 µM]	·	-10%	2%	·	-11%[46.1 µM]
O=C(CCc1nc2ccccc2c(=O)[nH]1)Nc1ccc(F)c([N+](=O)[O-])c1	0%	·	-2%	-1%	-16%	·	15%	-5%
Cc1ccc(NC(=O)CCNS(=O)(=O)c2ccc3[nH]c(=O)oc3c2)c(Cl)c1	0%	·	5%[46.1 µM]	-18%	4%	·	-1%	0%[46.1 µM]
Cc1cc(C)c2c(c1)/C(=C/C(=O)c1ccc(Br)s1)C(=O)N2	2%	-4.9%	?	0%	?	6%	-1%	?
O=C(Cn1cc(C(F)(F)F)ccc1=O)N/N=C/c1ccc(Cl)cc1	7%	-3.9%	?	-6%	-7%	7%	8%	?
COc1cc(S(=O)(=O)N(Cc2ccccn2)Cc2ccco2)ccc1-n1cnnn1	16%	-1.9%	1%	-27%	·	24%	1%	17%
CC(=O)Nc1ccc(NC(=O)CSc2nccn2Cc2ccc3c(c2)OCO3)cc1	·	-1.9%	·	·	?	0%	·	-5%[46.1 µM]
COc1ccccc1N1CCN(C(=O)C(Cc2ccccc2)NC(=O)C2CCCCC2)CC1 (stereo not drawn)	-7%	-25%	-7%&-7%	3%	-12%	5%	-7%	-13%
CC(C)CC(c1nnnn1Cc1ccco1)N1CCN(c2cccc(Cl)c2)CC1 (stereo not drawn)	-5%	-2.8%	8.9µM*	-17%	?	2%	-52%	?
CCOc1ccc(S(=O)(=O)c2c(C(=O)c3ccc(CC)cc3)cnc3ccc(C)cc23)cc1	·	-3.6%	?	·	-5%	20µM*	·	·
Cc1cc(C)c2c(c1)NP(=S)(c1ccccc1)N2 (stereo not drawn)	·	·	-1%	-16%	29%	·	·	4%
Cc1cc(NC(=O)c2ccc(N(C)S(=O)(=O)c3ccccc3)cc2)no1	?	3.0%	?	2%	?	-2%	3%	?
CC1CCCN1c1ccnc2cc(Cl)ccc12 (stereo not drawn)	·	·	?	-2%	-21%	·	·	-12%[46.1 µM]
COc1ccc(OCCn2cc(/C=N/NC(=O)c3ccncc3)c3ccccc32)cc1	26%	-8.1%	?	·	-26%	?	4%	-4%
COc1cccc(Sc2ccccc2CN(C)C)c1	1%	5.0%	-3%	8%	0%	0%	1%	-3%
